# Bioassay records as filed in PubChem BioAssay.
# Mtb betalactam: beta-lactam sensitization of Mtb H37Rv; 330,000 tested, 0.27% active; inhibition, % at 25 µM; M. tuberculosis H37Rv growth with meropenem, percent inhibition; hits of this screen are not shown here;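 active = about 74% or more and at least 40 points above the plate without the antibiotic, then above 30% in a dose series; inconclusive = first-round hits that could not be retested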;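 also: growth measured after seven days incubation then overnight dye step; 0% = bacteria only wells and 100% = bacteria with antibiotic; twin plates without the antibiotic show which effects depend on it; some results filed as inactive read as strong as hits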
# Mtb growth: M. tuberculosis H37Rv growth inhibitors, H37Rv strain (AID 1626) | M. tuberculosis H37Rv growth inhibition; higher % means a stronger effect | 220,000 tested, 0.95% active | one-dose inhibition, % at 10 µM; IC50 in µM for titrated hits;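 active = confirmed in a dose series; inconclusive = inhibition above 80% but not taken into the dose series; inactive = below 80% or under 30% at every dose of the series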;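 also: bacteria incubated seven days before Alamar blue readout; 0% = bacteria only wells and 100% = bacteria with antibiotic wells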
# YopH inh: blocks Yersinia enterocolitica YopH tyrosine phosphatase; 140,000 tested, 0.16% active; inhibition, %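 (about 10 µM by stock and volumes)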; fluorescence Ex485/Em525; AID 898;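 active = inhibition of 50% or more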;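 also: controls were vehicle for no effect and minimum signal wells for full effect; inactives centre near -20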
# Arbovirus anti: blocks arbovirus infection. arbovirus infection cell-based antiviral screen. inhibition, % at 10 µM. 200,000 tested, 0.37% active. AID 1251;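 active = inhibition from about 30%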;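 also: bluetongue infection of BSR cells; cell survival read as ATP light after 72 h; 0% = infected wells without compound and 100% = uninfected wells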
# RecA intein inh: blocks M. tuberculosis RecA intein splicing | cell-free RecA intein splicing, fluorescence | inhibition, %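 (about 9 µM by stock and volumes)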 | 290,000 tested, 0.75% active; in the data active = inhibition above about 30%; inconclusive = no clear call, values can overlap the other calls;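 also: 0% = vehicle wells and 100% = reference inhibitor control wells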
# Target sequence (P9WHJ3 whole entry, looked up): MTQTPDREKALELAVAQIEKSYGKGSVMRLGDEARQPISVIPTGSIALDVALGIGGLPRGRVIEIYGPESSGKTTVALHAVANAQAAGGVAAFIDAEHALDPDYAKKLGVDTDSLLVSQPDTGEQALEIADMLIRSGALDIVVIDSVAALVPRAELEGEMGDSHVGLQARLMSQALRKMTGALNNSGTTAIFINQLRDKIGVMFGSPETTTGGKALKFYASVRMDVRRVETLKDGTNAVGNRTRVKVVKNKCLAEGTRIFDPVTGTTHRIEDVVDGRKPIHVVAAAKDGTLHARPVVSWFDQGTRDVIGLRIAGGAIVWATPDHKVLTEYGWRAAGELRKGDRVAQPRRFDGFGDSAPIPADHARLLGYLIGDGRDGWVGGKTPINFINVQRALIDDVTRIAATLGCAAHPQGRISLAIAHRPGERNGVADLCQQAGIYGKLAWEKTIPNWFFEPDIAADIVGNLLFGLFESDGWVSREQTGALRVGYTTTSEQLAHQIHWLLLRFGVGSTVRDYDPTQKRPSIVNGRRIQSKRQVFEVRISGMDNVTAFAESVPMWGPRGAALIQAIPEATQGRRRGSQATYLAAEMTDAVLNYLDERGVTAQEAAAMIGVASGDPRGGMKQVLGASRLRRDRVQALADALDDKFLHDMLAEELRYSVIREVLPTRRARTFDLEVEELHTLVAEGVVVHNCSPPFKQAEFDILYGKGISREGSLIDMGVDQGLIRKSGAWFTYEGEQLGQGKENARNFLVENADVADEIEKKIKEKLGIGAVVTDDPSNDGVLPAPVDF
# Arbovirus anti repeat: also measured in Arbovirus anti; calls as there; inhibition, %; measured here: 10K subset replicate screen; many hits read low in the repeat;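 first of two repeat runs on a subset; 0% = infected and 100% = uninfected wells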
# * hit, by the source's call; u = inconclusive; x = not tested or not shown. Not all compounds are listed; rates above refer to the full screens.
SMILES,Mtb betalactam,Mtb growth,YopH inh,Arbovirus anti,RecA intein inh,others
Cc1ccc(S(=O)(=O)NC(C(=O)Oc2ccc3ccc(=O)oc3c2)c2ccccc2)cc1 (stereo unspecified),11,4%,-22,17,-82,
COc1ccc(C(C(=O)NCC2CCCO2)N(C(=O)CNC(=O)c2cccs2)c2ccc(C)cc2)cc1OC (stereo unspecified),-2,-3%,x,5,-1.6,
COc1ccc(S(=O)(=O)N(CC(=O)N2CCN(C)CC2)c2ccccc2)cc1OC,-6,-11%,-11,-3,2.4,
O=C(CN1CCOCC1)N1CCc2ccccc2C(c2ccccc2)C1 (stereo unspecified),2,-2%,-7,8,-1.1,
O=C(CCn1cnc2ncccc2c1=O)N1CCN(c2cccc(Cl)c2)CC1,-2,-8%,x,x,-0.5,
O=C(NCc1ccc(F)cc1)C(c1ccccc1)c1ccccc1,5,x,x,x,1.8,
CCc1ccc(/C(C)=N/NC(=O)CNC(=O)/C=C/c2ccccc2OC)cc1,-1,x,x,x,-3.3,
CN(c1ccccc1)S(=O)(=O)c1cccc(NC(=O)COC(=O)C2CCCCC2)c1,-4,-2%,x,x,4.9,
Cc1ccc(C)c(CSc2nnc([C@@H]3CCCN3)o2)c1,0,-5%,x,x,1.2,
CCOCCn1c(CN(Cc2ccccc2)Cc2ccccc2)nc2c1c(=O)n(C)c(=O)n2C,1,12%,x,13,13,Arbovirus anti repeat=-5
O=P(O)(O)COc1ccccc1O,1,4%,-2,9,0.4,
COc1cccc(CNC(=O)c2ccc(CS(=O)(=O)Cc3ccc(C)cc3)o2)c1,1,-1%,x,8,-1.6,
CCOC(=O)C1CCN(Cc2ccccn2)CC1,-6,x,x,x,0.0,
COCCNC(=S)NN=C1CCC(c2ccccc2)CC1 (stereo unspecified),6,-3%,x,1,-2.9,
O=c1c2ccccc2c2ccccc2c(=O)n1CC1CCCO1 (stereo unspecified),2,0%,-26,-1,1.0,Arbovirus anti repeat=0
O=C(Cn1c(=O)oc2ccccc21)Nc1ccc2c(c1)OCCO2,-1,-3%,-95,8,0.9,
O=C(OCC(=O)c1ccc[nH]1)c1ccccc1,0,8%,x,-3,-0.3,
O=C(CCS(=O)(=O)c1ccc(Br)cc1)NCCC1=CCCCC1,14,x,x,x,0.2,
CC1CCCN(c2ccc(C(=O)Nc3cccnc3)cc2[N+](=O)[O-])C1 (stereo unspecified),10,9%,x,-19,4.7,
Cc1sc(NC(=O)CCS(=O)(=O)c2ccccc2)c(C#N)c1C,1,x,x,x,-1.5,
CCOC(=O)C(=O)c1csc(NC(=O)CCSc2ccc(C)cc2)n1,0,5%,x,-4,-0.1,
O=C(c1cccc(Cl)c1)N(Cc1ccco1)C1CCS(=O)(=O)C1 (stereo unspecified),-5,x,x,x,-0.8,
COc1ccc(-c2cc(-c3nnc(-c4ccncc4)o3)c3ccccc3n2)cc1,6,9%,-19,5,-1.0,
COc1ccc(-c2cccc(C(=O)NCC(=O)O)c2)cc1,-16,-8%,-10,-5,-0.5,
Cc1c(/C(O)=C2/C(=O)C(=O)N(CCN3CCOCC3)C2c2cccs2)cnn1-c1ccccc1 (stereo unspecified),-10,0%,-21,-2,-1.9,
CC(C)NC(=O)CN(CCc1ccccc1)S(C)(=O)=O,-1,-7%,-38,-4,0.6,
CCOc1ccc(NC(=O)CCCCCN2C(=O)[C@@H]3Cc4ccccc4CN3C2=O)cc1,82,x,x,x,2.7,
Clc1cccc(CSc2nnc(-c3ccccn3)n2Cc2ccco2)c1,7,2%,-22,16,15,Arbovirus anti repeat=-3
CC(C)CN(C(=O)Cn1c(Cl)nc2c1c(=O)n(C)c(=O)n2C)C1CCS(=O)(=O)C1 (stereo unspecified),-4,x,x,x,6.0,
CC1(C)CC(NC(=O)COc2ccc3ccc(=O)oc3c2)CC(C)(C)N1,3,x,x,x,-3.0,

# Looked up by structure from above (five):
SMILES,Mtb betalactam,Mtb growth,YopH inh,Arbovirus anti,RecA intein inh,others
CC1CCCN(c2ccc(C(=O)Nc3cccnc3)cc2[N+](=O)[O-])C1 (stereo unspecified),10,9%,x,-19,4.7,
Cc1c(/C(O)=C2/C(=O)C(=O)N(CCN3CCOCC3)C2c2cccs2)cnn1-c1ccccc1 (stereo unspecified),-10,0%,-21,-2,-1.9,
COc1ccc(-c2cc(-c3nnc(-c4ccncc4)o3)c3ccccc3n2)cc1,6,9%,-19,5,-1.0,
O=C(Cn1c(=O)oc2ccccc21)Nc1ccc2c(c1)OCCO2,-1,-3%,-95,8,0.9,
O=C(CCS(=O)(=O)c1ccc(Br)cc1)NCCC1=CCCCC1,14,x,x,x,0.2,

# Next results:
SMILES,Mtb betalactam,Mtb growth,YopH inh,Arbovirus anti,RecA intein inh,others
COc1ccc(NC(=O)NCc2ccccn2)cc1,-4,-5%,-8,3,4.3,
CCN(CC)CCCNc1oc(-c2ccccc2[N+](=O)[O-])nc1C#N,-4,-5%,x,x,-5.2,
COc1ccc2ccccc2c1CN1CCN(C(=O)c2ccccc2)CC1,-13,5%,10,8,1.0,
O=C(CCN1C(=O)/C(=C/c2ccccc2Cl)SC1=S)Nc1cccnc1,u,x,x,x,1.2,
CCOc1ccc(NC(=O)CSc2nnnn2CC(=O)O)cc1,6,-3%,-3,1,0.8,
CC1CN(c2ccc([N+](=O)[O-])c(NCCOc3ccccc3)c2)CC(C)N1 (stereo unspecified),22,x,x,x,2.5,
COc1ccc(C(C)(C)C)cc1NC(=O)c1ccc[n+]([O-])c1,-3,x,x,x,-3.7,
Cc1ccc(CNC(=O)c2nn(C)c(C)c2[N+](=O)[O-])cc1,-7,10%,-14,-1,-2.5,
COc1ccc(Cl)cc1NC(=O)Nc1ccc(C(=O)N2CCOCC2)cc1,-7,x,x,x,-5.2,
Cc1c(NC(=O)C2CCN(S(=O)(=O)c3ccc(Cl)cc3)CC2)c(=O)n(-c2ccccc2)n1C,-9,-12%,-30,0,1.2,
CCn1c(SCC(N)=O)nc2sc3c(c2c1=O)CCCC3,2,-5%,-19,-2,-3.9,
CC(C)C1C(C#N)=C(N)Oc2n[nH]c(-c3ccccc3)c21 (stereo unspecified),-12,-14%,5,-2,7.7,
Cc1csc2c(=O)n3c(nc12)CCCCC3,u,-1%,-19,6,0.8,
C=CCN(c1ccccc1Cl)S(=O)(=O)c1cccc(C(=O)NCCc2ccc(OC)cc2)c1,-3,5%,-23,3,3.4,
Cc1ccc(C)c(Nc2nc3ccccc3n3cnnc23)c1,0,x,x,x,5.3,

# Gathered by group, the entries above with two or more sulfur atoms (four)
SMILES,Mtb betalactam,Mtb growth,YopH inh,Arbovirus anti,RecA intein inh,others
Cc1sc(NC(=O)CCS(=O)(=O)c2ccccc2)c(C#N)c1C,1,x,x,x,-1.5,
CCOC(=O)C(=O)c1csc(NC(=O)CCSc2ccc(C)cc2)n1,0,5%,x,-4,-0.1,
O=C(CCN1C(=O)/C(=C/c2ccccc2Cl)SC1=S)Nc1cccnc1,u,x,x,x,1.2,
CCn1c(SCC(N)=O)nc2sc3c(c2c1=O)CCCC3,2,-5%,-19,-2,-3.9,

# (more compounds)
SMILES,Mtb betalactam,Mtb growth,YopH inh,Arbovirus anti,RecA intein inh,others
CCCOc1ccc(C2C(C(=O)c3ccc(C)o3)=C(O)C(=O)N2Cc2cccnc2)cc1 (stereo unspecified),-8,-10%,-24,1,-1.2,
CCCN(C(=O)c1cn(-c2ccccc2)nc1-c1ccc(OC)cc1)C1CCS(=O)(=O)C1 (stereo unspecified),-8,x,x,x,1.0,
COC(=O)[C@@]1(Cc2ccc(OC)cc2)[C@H]2c3cc(C(=O)N(C)C)n(Cc4c(CO)[nH]cc(C)c4=O)c3C[C@H]2CN1C(=O)c1ccccc1,-6,-5%,x,x,2.2,
O=C1CSC(=Nc2cccc(Cl)c2Cl)N1Cc1cccnc1,1,4%,x,x,4.2,
COc1ccc(/C=N/NC(=O)CO/N=C(\C)c2cccs2)cc1,-2,0%,-12,-8,4.8,
COc1ccccc1OCCSc1nnnn1-c1ccc(C)cc1,0,18%,-33,-5,7.5,Arbovirus anti repeat=7
Cc1ccc(P(=O)(CC(=O)O)c2ccc(C)cc2)cc1,-4,-7%,-32,0,-0.2,
COCCCNC(=O)c1ccccc1N(Cc1ccccc1)S(=O)(=O)c1ccc(OC)cc1,-7,x,x,x,-1.0,
C=CCn1nc(-c2ccccc2)c2c(C)onc2c1=O,-8,7%,x,5,-2.9,
CC1CCN(c2nc3c(c(=O)n(C)c(=O)n3C)n2Cc2ccccc2)CC1,6,14%,-14,1,3.0,
CC(CC(=O)Nc1ccc(-c2ccno2)cc1)n1cccn1 (stereo unspecified),0,x,x,x,1.2,
Nc1nc2c(nc(SCc3ccccc3Br)n2[C@@H]2O[C@H](CO)[C@@H](O)[C@H]2O)c(=O)[nH]1,11,x,x,x,0.0,
O=C(CCN1C(=O)C2CCCCC2C1=O)N1CCN(S(=O)(=O)c2cccc(F)c2)CC1 (stereo unspecified),-4,x,x,x,1.5,
COc1ccc(CNCCC2(Cc3ccccc3)CC(C)N(C)CC2C)cc1OC (stereo unspecified),-1,-2%,x,-19,0.7,
C=CCSc1nnc(-c2cc3c(-c4ccccc4)nn(C)c3s2)n1C,x,2%,18,-23,3.0,

# Entries from the list above containing bromine, in the order listed:
SMILES,Mtb betalactam,Mtb growth,YopH inh,Arbovirus anti,RecA intein inh,others
O=C(CCS(=O)(=O)c1ccc(Br)cc1)NCCC1=CCCCC1,14,x,x,x,0.2,
Nc1nc2c(nc(SCc3ccccc3Br)n2[C@@H]2O[C@H](CO)[C@@H](O)[C@H]2O)c(=O)[nH]1,11,x,x,x,0.0,

# New compounds follow
SMILES,Mtb betalactam,Mtb growth,YopH inh,Arbovirus anti,RecA intein inh,others
CCn1cc([N+](=O)[O-])c(C(=O)Nc2ccc3c(c2)OCCO3)n1,8,-6%,-39,10,-3.5,
O=C(NCCc1ccccc1)C(=O)NCC1OCCN1S(=O)(=O)c1ccc2c(c1)OCCO2 (stereo unspecified),-4,x,x,x,5.0,
Cc1cc(/C=C2\C(=O)NC(=O)N(c3ccc(Br)cc3)C2=O)c(C)n1-c1cc(C(=O)O)cc(C(=O)O)c1,-4,x,x,x,-1.2,
CC(=O)Nc1ccc(S(=O)(=O)N2CCN(C(=O)c3ncoc3-c3ccc(F)cc3)CC2)cc1,-7,x,x,x,-0.8,
Cc1onc(-c2c(Cl)cccc2Cl)c1C(=O)NCCCN1CCOCC1,-10,-1%,-9,0,1.3,
Cc1ccc(C(=O)Nc2ccc(S(=O)(=O)N3CCc4ccccc43)cc2)o1,4,-1%,-4,1,5.0,
O=C(Nc1ccc(O)cc1)C1CC=CCC1 (stereo unspecified),-9,-3%,-30,-25,11,
CCOC(=O)c1sc(NC(=O)c2ccc(OC)cc2)nc1C,-5,3%,x,-21,-1.9,
Cc1nn(CC(=O)O)c(C)c1C,-15,1%,-31,-2,-3.8,
CCOC(=O)c1cccc(NC(=O)c2ccc(N(C)C)cc2)c1,2,-3%,-19,-9,0.0,
Cc1cccc(C)c1NC(=O)c1cc2c(=O)c3ccccc3oc2nc1C(F)(F)F,3,10%,-11,-2,3.1,
CCC(NS(=O)(=O)c1ccc2c(c1)NC(=O)C(C)C(=O)N2)c1cccs1 (stereo unspecified),1,x,x,x,1.8,
O=C(O)c1cc2cc(OCc3ccccc3)ccc2[nH]1,8,-10%,-34,0,2.7,
COCc1nnc(SCC(=O)Nc2cccc(Cl)c2C)n1-c1ccccc1,0,-13%,-35,4,1.3,Arbovirus anti repeat=-3
Cc1sc(NC(=O)c2ccccc2)c(C(c2ccc(Cl)cc2)N2CCN(CCO)CC2)c1C (stereo unspecified),36,13%,-30,-38,-4.2,
CCC(NC(=O)c1ccc(C#CC2(O)CCCCC2)cc1)C(=O)O (stereo unspecified),0,0%,x,2,0.9,
Cc1cc(C(=O)N2CCN(c3ncccn3)CC2)cs1,6,-3%,-85,-2,0.5,
CCOc1ccc2nc(SCCNS(=O)(=O)c3ccccc3)sc2c1,26,6%,-16,8,-0.6,
CCOC(=O)C1=C(C)N(C)C(C)=C(C(=O)OCC)C1c1cccnc1,6,-6%,-7,-4,0.4,
N#CC(c1ccc(Cl)cc1)c1ccc(Cl)nn1 (stereo unspecified),-2,-4%,12,12,3.1,
COc1ccc(S(=O)(=O)N(C)C)cc1NC(=O)Cc1c[nH]c2ccccc12,6,-2%,x,-8,0.3,
COc1ccc(OC)c(C2=NO[C@@H]3C(=O)N(c4cc(Cl)ccc4OC)C(=O)[C@H]23)c1,-7,-11%,-41,7,-2.8,
O=C(Nc1nnc(C2CC2)s1)C1Cc2ccccc2CN1S(=O)(=O)c1cccs1 (stereo unspecified),91,u,-32,-2,5.8,
